Compound activity deposited in PubChem BioAssay by several laboratories.
Mtb hypoxia inh = PubChem AID 1159583; M. tuberculosis hypoxia-regulated fluorescent reporter, fluorescence; fluorescence inhibition, % (no concentration beside the values); 300,000 tested, 0.1% active;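 active = 35 to 45% if threefold the growth effect, above 45% if 1.5-fold the growth effect; inactive = the rest, general growth blockers included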;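 note: wells of about 50 µL received 100 nL stock; 0% = vehicle wells and 100% = reference inhibitor wells; whole bacteria with a GFP reporter of the hypoxia response; strong numbers were not always called active; many hits fall short of the cut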
Sa ugtP lethal = growth inhibition of ugtP-null S. aureus, primary screen, RN4220 ugtP deletion, OD600; AID 1259309, 2017; 330,000 tested, 0.54% active; growth inhibition, % (concentration not given with the values); 16 h; some inactives read as strong as hits;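 active = z-score under -3 and OD600 up to 0.15 on both plates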;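 note: plate controls were untreated wells for no effect and antibiotic for full effect; wells of about 80 µL received 100 nL stock; the first replicate is given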
RN4220 kill = growth inhibition of S. aureus RN4220, primary screen, OD600; 16 h; inhibition, % (concentration not given with the values); 330,000 tested, 0.33% active; AID 1259311, 2017;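 active = z-score of -3 or lower and OD600 up to 0.18 on both plates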;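 note: plate controls were untreated cells for no effect and reference antibiotic for full effect; stock transfer was 100 nL into about 80 µL; one replicate is shown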
PrP 5UTR inh = inhibition of PrP 5' UTR reporter expression; cell-based PrP 5' UTR mRNA reporter, plate reader; inhibition, % (no concentration beside the values); 340,000 tested, 0.35% active;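 active = every replicate at 50% or more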;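 note: 0 = median of the neutral control wells; tested in H4 reporter cells; numbers are from one replicate; inactives centre near -14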
BJeLR viability = MLPCN primary cell-based screen for lethality selective to Ras in HRASV12 cells | 300,000 tested, 0.17% active | BJeLR (HRASV12) viability, CellTiter-Glo ATP luminescence, 48 h; reference of the scale not given here | inhibition, % (test concentration not listed);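 active = replicate mean above 50%; inconclusive = above 50% but judged a plate artefact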;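 note: 50 nL library stock added to about 25 µL; numbers are from one replicate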
Autofluor counter = compound fluorescence in toxin protease inhibitor counterscreen. 360,000 tested, 3.1% active. AID 624483. compound autofluorescence counterscreen, microsphere flow cytometry; hits give high values. fluorescence intensity (no concentration beside the values);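 active = at least 3 SD above the mean of all compounds, about 16000 in these data; inconclusive = too few beads counted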;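 note: 100 nL of 1 mM stock went into each well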
Mtb hypoxia inh growth = second read-out of Mtb hypoxia inh, no call of its own (marks repeat the call); growth inhibition, %; measured here: M. tuberculosis growth (absorbance);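 0% = vehicle and 100% = reference antibiotic; read after six days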
* marks the source's active call; other numbers are inactive results; ? = inconclusive; · = no result given; & = joins results of further samples.

Values run as follows: Mtb hypoxia inh	BJeLR viability	Mtb hypoxia inh growth	PrP 5UTR inh	Sa ugtP lethal	Autofluor counter	RN4220 kill
- C=CCn1c(SCc2nc3cc(C(F)(F)F)ccc3c(=O)[nH]2)nc2sc(CC)cc2c1=O
  1	-16	10	-14	2	2163	-0.8
- COc1cc(C=NN2C(=O)c3ccccc3C2=O)ccc1O
  11	·	7	·	9	·	6.3
- CNC(=S)N1CCN=C1Nc1nc(C)cc(C)n1
  9	-3	4	-9	1	4745	1.5
- CCOC(=O)Cc1csc(NC(=S)NC(=O)c2cccc([N+](=O)[O-])c2)n1
  5	-2	3	-10	6	2487	6.3
- CCOC(=O)c1sc(NC(C)=O)nc1C
  2	1	4	-16	6	6747	4.0
- CCOc1cc(/C=N/NC(=O)Cn2nc([N+](=O)[O-])cc2C)cc(Br)c1OCc1ccccc1C
  ·	-3	·	-29	·	16860*	·
- N#Cc1c2n(c(=S)n(-c3ccccc3[N+](=O)[O-])c1=O)CCCCC2
  0	-1	8	2	7	4383	8.3
- COc1ccc(CNC(=O)Cn2nnc(-c3ccc(NC(=O)C4CCCCC4)cc3)n2)cc1
  3	3	8	-79	-2	2897	8.8
- Cc1ccsc1C(=O)NCC(=O)OCc1ccccc1
  -4	-5	-5	-18	-3	4433	-2.8
- Cc1ccc(NC(=O)c2c([N+](=O)[O-])cnn2C)cc1C
  21	-1	15	-3	10	3966	2.6
- COC(=O)c1ccc(CNCC(O)COc2ccc(-c3ccccc3)cc2)cc1 (configuration not stated)
  -5	2	-1	-6	-5	6436	-0.6
- NC(=O)c1ccc(NC(=O)Nc2ccc3c(c2)OCO3)cc1
  -7	-2	0	-32	2	6045	-2.7
- Cn1c(CNC(=O)c2ccc(F)cc2)nc2ccccc21
  6	-3	7	-13	3	5787	4.2
- COCc1nnc(NC(=O)CSc2ccc(C)cc2)s1
  -7	-8	9	-19	1	9697	-0.9
- COc1ccc(OC)c(CN2CCN(C(=O)c3ccco3)CC2)c1
  9	-9	3	6	3	3096	7.4
- CC(=NCc1ccco1)c1c(O)n(C)c(=O)n(C)c1=O
  -6	-4	-1	-9	-6	21713*	-2.1
- O=S(=O)(Nc1c(S(=O)(=O)c2ccccc2)c2nc3ccccc3nc2n1C1CCCCC1)c1ccccc1
  4	9	7	-1	-10	7728	3.5
- CCCCN(C(=O)C1CC(=O)N(c2ccc(OC)cc2OC)C1)c1c(N)n(CC(C)C)c(=O)[nH]c1=O (configuration not stated)
  1	1	-7	-11	0	5969	1.6
- O=C(NC1CCCCNC1=O)c1ccco1 (configuration not stated)
  11	-2	1	13	5	3135	1.8
- O=C1NC2(CCCCCC2)Oc2ccccc21
  -8	-8	16	-4	-2	2075	4.2
- CCN(CC)C(=O)CSc1nnc(-c2ccccn2)n1-c1ccccc1OC
  8	-2	-4	-2	4	4859	7.3
- CCOC(=O)c1c(N)n(Cc2ccccc2)c2nc3ccccc3nc12
  0	-12	-1	-8	-5	12103	5.5
- COC(=O)CCC(=O)N1CCCC(N2CCN(c3cccc(C(F)(F)F)c3)CC2)C1 (configuration not stated)
  -4	3	3	-21	4	3863	-1.5
- O=C(Nc1ccnn1C1CCN(C2CCC2)CC1)c1ccccc1
  4	0	0	-12	4	5420	-1.0
- COc1cccc2cc(C(=NO)c3ccc(Br)cc3)oc12
  8	·	15	·	5	·	-4.7
- CCNC(=S)NS(=O)(=O)c1ccc(Cl)cc1
  -9	-2	-6	-6	-4	2624	1.8
- COc1ccc(NC(=S)NCCc2ccc(Cl)cc2)c(OC)c1
  9	-3	14	-28	1	4147	2.4
- COCCCNC(=O)c1ccc(Cn2c(=O)c3ccccc3n(Cc3cc(C)ccc3C)c2=O)cc1
  -1	4	5	-7	-2	3802	-1.0
- O=C(COC(=O)c1ccco1)c1ccc(S(=O)(=O)N2CCCCC2)cc1
  -10	0	-6	-15	3	6336	6.4
- COC(=O)N1CCN(CCc2ccccc2)CC1
  9	6	2	-22	5	3878	7.4
- Cc1cccc(C(=O)Nc2ccnc(-c3ccncc3)n2)c1
  -6	-2	-9	-4	5	3269	16
- Cc1ccc(CCNC(=O)C2CCN(S(=O)(=O)N3CCCCC3)CC2)cc1
  -11	-3	-10	4	16	2773	6.8
- COc1ccc([C@@H]2[C@@H]3C(=O)N(C(C)(C)C)C(=O)[C@@H]3[C@]3(Cc4ccccc4)C(=O)N(c4cccc(F)c4)C(=O)N23)cc1
  ·	8	·	-6	·	3966	·
- C#CCOc1ccc(C2C3=C(CC(C)(C)CC3=O)N(CC(=O)O)C3=C2C(=O)CC(C)(C)C3)cc1
  15	-8	12	-10	7	3528	5.3
- C=CCNc1nc(Cl)nc(Nc2ccc(OCC)cc2)n1
  -2	-3	5	-12	11	2722	-1.0
- CSCc1c(C(=O)Nc2ccc(N3CCOCC3)cc2)oc2ccccc12
  ·	3	·	-20	-1	2325	-2.6
- Cc1nn(Cc2ccccc2)c(C)c1NC(=O)CSc1nc2c(c(C(F)(F)F)n1)CCc1ccccc1-2
  -7	-7	-1	-24	-10	2095	-1.4
- CC(=NOCC(=O)OCC(=O)Nc1cc(S(C)(=O)=O)ccc1Cl)c1ccc2c(c1)OCO2
  -11	·	-1	·	5	·	0.9
- CCOC(=O)CSc1nc(-c2ccccc2)nc2ccc(C)cc12
  -6	2	0	-15	17	3205	4.9
- Cc1ccc(NC(=O)COC(=O)CCc2c[nH]c3ccccc23)cc1[N+](=O)[O-]
  -2	0	11	-20	-5	2596	7.3
- CCc1ccc(OCC(=O)N/N=C(\C)c2ccc(-n3ccnc3)cc2)cc1
  ·	-2	·	-41	·	2434	·
- CCOc1ncccc1C(=O)NCc1ccccc1F
  -5	2	1	0	9	4252	4.3
- O=C(NCCCN1CCOCC1)c1ccc(S(=O)(=O)N2CCOCC2)cc1
  5	-5	8	-3	6	8243	3.8
- CCN1CCN(c2ccc(S(=O)(=O)N3CCCCC3)cc2NC(=O)CC(NC(C)=O)c2ccccc2)CC1 (configuration not stated)
  -2	10	-7	-8	14	?	5.3
- COc1ccc(CNC(=O)c2ccc(Cn3cc(Cl)cn3)o2)cc1
  6	-9	7	-27	7	4185	-1.9
- NCC1(c2ccc3c(c2)OCCO3)CCCC1
  ·	3	·	-11	-3	4707	0.2
- CCC(=O)Nc1ccc(C(=O)CSc2nnc(CNc3ccc(Cl)cc3)o2)cc1OC
  4	-3	4	-8	-5	?	3.1
- Cc1coc2cc3oc(=O)c(CCC(=O)NCCN4CCOCC4)c(C)c3cc12
  ·	6	·	-28	-7	6120	0.0
- O=C(COc1ccc(Cl)cc1)N1CCN(Cc2ccc3c(c2)OCO3)CC1
  -4&-6	5	1&10	-8&-16	4&9	6430&3933	1.2&-4.8
- C/C(=N/NC(=O)c1ccc(Cl)s1)c1cccnc1
  ·	-2	·	-16	·	5169	·
- O=C1NN=C(c2ccc(Cl)cc2)CC1c1c[nH]c2ccccc12 (configuration not stated)
  14	-10	16	-15	-6	4327	1.1
- CCCCn1c(NC(=O)c2ccco2)c(S(=O)(=O)c2ccc(C)cc2)c2nc3ccccc3nc21
  7	2	9	-17	-10	3396	2.4
- CCOC(=O)C(C)NS(=O)(=O)N(Cc1ccccc1)C(C(=O)OC)C(C)C (configuration not stated)
  16	·	8	·	1	·	11
- O=C(CCN1C(=O)/C(=C/c2ccc3c(c2)OCO3)SC1=S)Nc1ccc(C(=O)O)cc1
  7	-13	8	-7	-3	2889	8.3
- Cc1ccc(CNS(=O)(=O)c2c(C(=O)N3CCCCCC3)c(C)n(C)c2C)cc1
  17	12	8	-6	11	5145	3.3
- COc1ccc(N(Cc2nnc3n2CCCCC3)C(=O)Nc2ccccc2)cc1
  9	8	16	-5	4	3302	7.4
- COc1ccc(NC(=O)CCC(=O)N(Cc2ccc(OC)c(OC)c2)c2nccs2)cc1
  6	-5	5	-5	4	1934	3.9
- Cn1c(=O)[nH]c(=O)c2c1nc(N1CCCCC1)n2CC(O)COc1ccccc1 (configuration not stated)
  9	-7	3	-19	-2	2983	-3.0
- C=CC(=O)NC(C)(C)Cc1ccccc1
  0	-3	-2	-10	0	3788	0.6
- CC1CCCN(c2nc3c(c(=O)n(C)c(=O)n3C)n2Cc2ccccc2)C1 (configuration not stated)
  11	-20	5	-19	18	10092	6.2

Pulled one by one from the list above, 2 records:
Values run as follows: Mtb hypoxia inh	BJeLR viability	Mtb hypoxia inh growth	PrP 5UTR inh	Sa ugtP lethal	Autofluor counter	RN4220 kill
- O=C(NCCCN1CCOCC1)c1ccc(S(=O)(=O)N2CCOCC2)cc1
  5	-5	8	-3	6	8243	3.8
- C#CCOc1ccc(C2C3=C(CC(C)(C)CC3=O)N(CC(=O)O)C3=C2C(=O)CC(C)(C)C3)cc1
  15	-8	12	-10	7	3528	5.3

Other records.
Values run as follows: Mtb hypoxia inh	BJeLR viability	Mtb hypoxia inh growth	PrP 5UTR inh	Sa ugtP lethal	Autofluor counter	RN4220 kill
- CCCn1c(C(C)NC(=O)c2ccccc2)n[nH]c1=S (configuration not stated)
  17	1	-2	-5	8	4751	3.6
- COc1ccc(CC(=O)Nc2c(C(=O)N3CCN(c4ncccn4)CC3)oc3ccccc23)cc1
  6	6	-1	-13	6	4955	0.9
- CCOC(=O)C1CCCN(c2c(NCCCN(C)Cc3ccccc3)c(=O)c2=O)C1 (configuration not stated)
  -6	-3	0	-22	-5	11854	-5.6
- COc1cccc(NC(=O)c2ccccc2N2C(=O)C3C4C=CC(C4)C3C2=O)c1 (configuration not stated)
  11	4	6	-29	2	6294	2.3
- CS(=O)(=O)N1CCN(C(=O)c2cc(-c3ccccc3)nc3ccccc23)CC1
  -10	-6	1	·	-1	9329	-0.1
- O=C(OCCCN1CCCCC1)c1ccc(O)cc1
  ·	-6	·	-4	5	5888	-0.4
- O=C(COc1ncnc2c(Cl)cc(Cl)cc12)N1CCCCC1
  -1	3	6	-20	3	?	5.8
- Cc1cc(S(=O)(=O)N2CCOCC2)ccc1OCC(=O)Nc1ccc(F)cc1F
  -6	-2	-7	-21	-2	3689	-2.0
- CCCCC(NC(=O)Cc1c(C)c2cc3c4c(oc3c(C)c2oc1=O)CCCC4)C(=O)O (configuration not stated)
  0	2	8	-19	0	3449	5.4
- CCCOc1ccc(Cl)cc1Nc1nc(NCCO)nc(N2CCCC2)n1
  3	-2	-6	-15	1	3049	1.2
- O=C(CNC(=O)c1ccc(Cl)cc1)Nc1ccccc1C(F)(F)F
  6	9	-1	-49	2	4153	1.3
- N#C/C(=C(/O)c1ccc2c(c1)OCO2)c1nc2cc(C(F)(F)F)ccc2s1
  ·	11	·	-18	·	3530	·
- COc1ccc(NC(=S)N(CCO)Cc2ccccc2)cc1
  6	-2	-1	-12	2	4111	6.7
- COc1ccc(C/C(C)=N/NC(=O)c2cccnc2)cc1
  ·	-5	·	-4	·	9279	·
- Cc1onc(-c2ccccc2)c1C(=O)N1CCCCCC1
  2	-2	-4	-16	3	5712	1.9
- CCCn1c(N)c(N(CCOC)C(=O)COC(=O)c2ccccc2NCCO)c(=O)[nH]c1=O
  1	-11	3	-12	-1	?	0.0
- CC(NC(=O)c1ccco1)C(=O)OCC(=O)N1CCCCCC1 (configuration not stated)
  4	·	1	-5	0	4165	2.0
- CCOC(=O)C1CCCN(c2c(NCCCN(CC)c3ccccc3)c(=O)c2=O)C1 (configuration not stated)
  -4	-3	2	-15	3	24139*	0.4
- Cn1cc(S(=O)(=O)N2CCc3ccccc32)cc1C(=O)NC(C)(C)C
  6	9	7	-12	-5	5790	-11
- O=c1[nH]c2nc(Cl)nc(Cl)c2[nH]1
  15	·	7	-23	6	3589	1.5
- COc1ccc(-c2nnc3n(CCc4ccccc4)c(=O)c4ccccc4n23)c(OC)c1
  10	-16	9	-1	2	2107	5.7
- CCCN1C2CCCC1CC(NC(=O)c1ccccc1OCC)C2 (configuration not stated)
  -1	-10	5	-17	3	3637	3.8
- O=C(Nc1nncs1)C12CC3CC(CC(C3)C1)C2
  2	-1	7	·	10	3693	4.1
- COc1cc(C(=O)OC(C)C(=O)NC2CCCCC2C)c([N+](=O)[O-])cc1OC (configuration not stated)
  2	-5	-3	-10	0	·	4.3
- O=C(CCn1nc(-c2ccccc2)c2ccccc2c1=O)NCC1CCCO1 (configuration not stated)
  0	-2	-4	-7	3	3648	3.7
